Source: PubChem BioAssay (National Center for Advancing Translational Sciences (NCATS))
ClpP mod: qHTS Assay for Activators of ClpP; ATP-dependent Clp protease proteolytic subunit (Bacillus subtilis (strain 168)), P80244; purified B. subtilis ClpP, FRET peptide cleavage, 20 min; Potency, µM (titrated, usually from 57.5 µM), inactives show at the highest dose activity change, negative = active; 340,000 tested, 1.9% active; active = well fitted falling curve with a large enough effect; inconclusive = small, poorly fitted or top-dose-only effect; inactive = no such curve, though single readings can be large or run the other way; note: potency is the fitted concentration of half-maximal effect; the source files actives as falling curves though it sought activators and does not explain the sign; nearly all actives have a fitted effect of over 65% in size; many hits overshoot -100%
Target sequence (P80244 whole entry, looked up): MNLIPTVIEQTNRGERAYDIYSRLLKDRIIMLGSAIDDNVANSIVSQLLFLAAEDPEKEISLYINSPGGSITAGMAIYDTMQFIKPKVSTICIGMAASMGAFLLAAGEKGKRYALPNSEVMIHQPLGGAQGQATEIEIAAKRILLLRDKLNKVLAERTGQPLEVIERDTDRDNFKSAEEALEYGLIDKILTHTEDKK
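Buffer: 100 mM Tris/HCl pH8, 100 mM KCl, 0.05% low protease BSA, 2.5% glycerol, 0.01% Tween-20. ClpP 10 microg/mL final; 20 min RT; delta FRET normalized to ADEP and DMSO controls.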
TRPML1 blocker: qHTS for Inhibitors of the Human Mucolipin Transient Receptor Potential 1 (TRPML1) | Mucolipin-1 (Homo sapiens), Q9GZU1 | TRPML1-inducible cells, Ca2+ dye fluorescence, FDSS; hits give low values; inhibition of EC80 agonist-evoked calcium signal | activity change, negative = inhibition, % (test concentration not listed) | 390,000 tested, 0.02% active; in the data active means activity change below about -50%; inconclusive means about -30% to -50%; inactive means above about -30%;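 note: stimulus is agonist 54-4 at its EC80 concentration; % is set by controls: 0 for no effect and ±100 for the full control effect; compound concentration not given in the record; the text of the record puts the active cut at -80%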
Target sequence (Q9GZU1 whole entry, looked up): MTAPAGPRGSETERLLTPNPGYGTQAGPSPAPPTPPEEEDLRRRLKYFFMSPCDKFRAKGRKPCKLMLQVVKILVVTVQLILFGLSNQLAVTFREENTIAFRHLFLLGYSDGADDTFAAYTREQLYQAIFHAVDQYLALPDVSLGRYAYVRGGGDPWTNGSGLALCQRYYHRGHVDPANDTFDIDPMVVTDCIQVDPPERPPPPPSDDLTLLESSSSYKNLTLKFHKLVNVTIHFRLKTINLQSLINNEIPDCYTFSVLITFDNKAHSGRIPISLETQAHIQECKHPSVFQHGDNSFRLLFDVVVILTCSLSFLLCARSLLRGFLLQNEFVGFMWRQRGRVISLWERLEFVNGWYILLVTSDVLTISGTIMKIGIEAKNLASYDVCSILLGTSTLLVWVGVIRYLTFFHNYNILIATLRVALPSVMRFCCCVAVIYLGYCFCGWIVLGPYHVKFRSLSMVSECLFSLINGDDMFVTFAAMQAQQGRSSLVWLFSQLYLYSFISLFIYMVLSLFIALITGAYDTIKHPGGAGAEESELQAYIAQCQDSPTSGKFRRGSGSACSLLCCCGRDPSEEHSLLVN
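Calcium fluorescence in TRPML1-DL cells induced overnight with Tet: a 110 s read after compound pin addition, then a 110 s antagonist read after challenge with 54-4 at 4 uM final (EC80).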
PINK1 modulator: A Quantitative High throughput Screen to Identify Chemical Modulators of PINK1 Expression; PINK1 immunofluorescence, high-content cytometry, 24 h; Potency, µM (series often up to 76.6 µM), for inactives: at the top dose activation (PINK1 increase), most hits filed as activators; 410,000 tested, 0.2% active; AID 624263, 2012; active = well fitted activation curve with a large enough effect; inconclusive = small, poorly fitted or top-dose-only effect; inactive = flat fitted curve, though single readings scatter; cell line not stated here;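 note: potency is the fitted concentration of half-maximal effect; % of control where 0% means no effect; nearly all actives have a fitted effect of over 65% in size; a mitochondrial uncoupler was the plate control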
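PINK1 protein level read as immunofluorescence by microplate cytometer in a fixed, stained stable cell line after 24 h exposure to five compound concentrations, with CCCP as control.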
TRPV1 potentiator: HTS Assay for Compounds that Act as Potentiators of the Vanilloid Receptor 1. Transient receptor potential cation channel subfamily V member 1 (Homo sapiens), Q8NER1. TRPV1-expressing cells, Fluo-8 calcium influx, capsaicin EC20 potentiation; host cell line not named in the record; control for the full effect not named in the record. potentiation, % at 8.33 µM. 320,000 tested, 0.02% active. AID 540277, 2011; active means potentiation above 80%; inconclusive means 30% to 80%; inactive means below 30%; note: 0% is about no effect
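TRPV1-expressing cells were cultured overnight at 35.5C and loaded with Fluo-8 calcium dye for 40 to 90 min at room temperature. After a 10 s baseline, compound was added and calcium influx was read kinetically for 3 min (ex 480/em 520 nm).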
Sfp PPTase inh: qHTS Assay for Inhibitors of Bacillus subtilis Sfp phosphopantetheinyl transferase (PPTase); 310,000 tested, 3.5% active; Biochemical Sfp PPTase activity, qHTS; Potency, µM, for inactives: max response, negative = inhibition, usual class: inhibitors; 4'-phosphopantetheinyl transferase ffp (Bacillus subtilis), Q9F4F7; AID 1490, 2009; active = well fitted inhibition curve with a large enough effect; inconclusive = small, poorly fitted or top-dose-only effect, or another doubt; inactive = no such curve, though single readings can be large or run the other way;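 note: the enzyme is Sfp with the accession as filed and its product quenches rhodamine fluorescence; potency is the fitted concentration of half-maximal effect; 0% = enzyme reaction without inhibitor and -100% = no enzyme wells; top concentration of the series not given in the record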
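Buffer: 50 mM Hepes-Na pH 7.6, 10 mM MgCl2, 0.01% Nonidet P-40, 0.01% BSA. Enzyme 15 nM, pre-exposed to compound 15 min; substrates then added and fluorescence change tracked over 30 min.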
Menin-MLL FL inh: qHTS Assay for Inhibitors Targeting the Menin-MLL Interaction in MLL Related Leukemias: Competition With Fluorescein Labeled MLL-derived Peptide; Fluorescence polarization, fluorescein-MLL peptide displacement from menin; FP activity change, % at 61.4 µM; 290,000 tested, under 10 active; inconclusive = falling polarisation curve, or a change in total fluorescence; inactive = total fluorescence flat and polarisation flat or rising; no compound was filed as active; the % refers to the polarisation; negative = inhibition;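 note: % of control where 0% means no effect; inhibitors lower the polarisation; unlabelled MLL peptide was the positive control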
TRPML1 agonist: qHTS for Agonists of the Human Mucolipin Transient Receptor Potential 1 (TRPML1). Mucolipin-1 (Homo sapiens), Q9GZU1. TRPML1-expressing cells, Ca2+ dye fluorescence, FDSS; host cell line not named in the record; reference of the full effect not given here. activation, % (test concentration not listed). 410,000 tested, 0.12% active; in the data active = activation above about 50%; inconclusive = about 30% to 50%; inactive = below about 30%; note: 0% is about no effect; the text of the record puts the active cut at 80%
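Cells: TRPML1-DL, 1X Tet inducer, ~16 h at 37 degrees C/5% CO2. Dye: ABD Ca8 no-wash + quencher, 45-90 min RT. Read: 10 s baseline, compound add, 110 s agonist phase; 54-4 EC80 (4uM final), 110 s antagonist phase.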
An asterisk follows results filed as active; ? = inconclusive; · = not tested or not shown; [ ] = another dose, or the depositor's remark.

SMILES	Menin-MLL FL inh	TRPML1 blocker	PINK1 modulator	TRPV1 potentiator	TRPML1 agonist	Sfp PPTase inh	ClpP mod
CC1Cc2ccccc2N1C(=O)COC(=O)CNC(=O)c1ccc(Br)o1 (configuration not stated)	-4.5	0	-0.7%	9	-1.1	3%	-0.6%
CC(=O)Nc1ccc2nsnc2c1	-0.3	-1	0.7%	0	-0.2	9%	3.9%
COC(=O)c1cn(Cc2ccc(C(F)(F)F)cc2)cc(F)c1=O	1.1	4	-0.2%	7	0.7	12%	-3.5%
CCNc1nc(NCC)n2c(SCC(=O)N3CC4(C)CC3CC(C)(C)C4)nnc2n1 (configuration not stated)	-0.8	4	-3.9%	3	1.1	7%	-1.5%
CC(C)(C)c1ccc(OCCOCCn2cnc3ccccc3c2=O)cc1	0.2	-8	-0.9%	-8	2.4	3%	-1.6%
Cc1cccc(N=C2NN=C(c3ccc4c(c3)OCCO4)CS2)c1	2.3	-4	0.7%[38.3 µM]	-32	2.8	-25%	-4.4%
COc1ccccc1CNC(=O)CN1NS(=O)(=O)c2ccccc2C1=O	·	-9	-2.7%	·	1.3	·	·
Cc1cccc(Nc2nnc(SCC(=O)NCc3cccs3)s2)c1	5.0	25	3.2%	-16	1.0	-2%	0.5%
Cc1onc(-c2ccccc2)c1C(=O)N/N=C/c1cc2c(cc1Br)OCO2	3.3	0	4.7%	-1	1.4	?	1.0%
COc1ccc(NC(=O)/C=C\C(=O)N(c2ccc(C(C)C)cc2)C(C(=O)NCc2ccco2)c2ccc(C)cc2)cc1 (configuration not stated)	·	7	1.2%	·	1.1	·	2.2%
COc1cc(NC(=O)CC(C)S(=O)(=O)c2ccc3c(c2)CCN3C(C)=O)cc(OC)c1OC (configuration not stated)	·	9	1.5%	·	-0.1	·	1.2%
Cc1ncc([N+](=O)[O-])n1CC(=O)Nc1ccc(Br)cc1	0.8	-26	-0.5%	4	-0.1	9%	0.0%
CC(=O)c1ccc(NC(=O)NC2CCCc3ccccc32)cc1 (configuration not stated)	6.9	-6	4.2%	-3	-0.6	3%	-1.8%
Cc1ccc2c(-c3ccc([N+](=O)[O-])cc3)cc(=O)[nH]c2c1	2.4	11	3.9%	4	0.1	2%	0.2%
CC(NC(=O)COC(=O)CC(c1ccccc1)c1ccccc1)c1ccccc1 (configuration not stated)	-1.4	-2	0.2%	0	1.3	6%	-0.9%
CCCCN1CC(c2nc3ccccc3n2CCCCOc2ccccc2C)CC1=O (configuration not stated)	·	27	0.5%	·	0.0	·	-0.1%
CC1(C)CC(=O)C=C(Nc2ccc3c(c2)OCCO3)C1	4.3	5	0.0%	-16	-1.0	1%	1.6%
O=C(COc1ccccc1Br)Nc1ccc(S(=O)(=O)N2CCCC2)cc1	·	18	0.7%	-3	2.6	·	-0.6%
Cc1cc2nc3c(nc2cc1C)C1(C(=O)N(C)C)CCC3(C)C1(C)C (configuration not stated)	-0.7	5	-2.4%	2	-0.2	6%	-0.8%
COc1cccc(/C=C2\SC(=O)N(CCC(=O)N3CCCCC3CCO)C2=O)c1 (configuration not stated)	·	-5	-0.6%	-6	-0.6	2%	-10%
O=C(COc1ccc(Cl)cc1)NCCSCc1cccc(Cl)c1	0.1	-1	1.9%	2	5.6	-10%	-0.1%
CC1=CC(C)(C)NC(=S)N1c1cccc(Cl)c1	·	6	0.2%	·	0.6	·	·
O=C(Nc1ccc(F)cc1)c1ccccc1NC(=O)C1CCCCC1C(=O)O (configuration not stated)	·	-9	1.0%	·	-0.5	·	·
Cc1nc(NC(=O)/C=C/c2ccccc2)sc1C(=O)Nc1cccc(Cl)c1	1.1	13	7.8%	14	0.8	28%	227%
Cc1cc(OCC(=O)Nc2ccc(N3CCCC3)cc2)cc(C)c1Cl	3.3	11	9.7%	-4	1.0	-29%	-0.7%
O=Cc1ccc(OCCN2CCCC2=O)cc1	6.0	-2	0.7%	-11	0.6	-2%	-2.4%
O=C(NCC1CCCO1)C1CCN(C2CCN(CCCC3CCCC3)CC2)CC1 (configuration not stated)	4.0	-5	0.2%	-6	1.3	-4%	-2.4%
COc1ccc(CC(=O)NCC2(N3CCCCC3)CCCCC2)cc1	2.8	-10	1.7%	10	0.2	6%	-2.4%
Cc1ccc(C)c(C(=O)CSc2nnc(C)s2)c1	-1.3	40	3.0%	1	1.1	13%	-1.7%
CCOc1ccccc1CNCCN1CCOCC1	1.1	12	6.9%[38.3 µM]	-9	-0.5	-5%	-0.9%
CCOC(=O)c1cc(C#N)c(Oc2cccc(C(F)(F)F)c2)nc1-c1ccccc1	-3.6	11	1.0%	5	2.5	4%	-15%
Cc1ccccc1-c1nccc(Nc2ccc(F)cc2)n1	-1.8	·	2.7%	·	·	-1%	·
Cc1ccc(SCC(=O)OCC(=O)N(C)CC(=O)Nc2ccccc2Cl)cc1	·	-7	-0.1%	-26	-0.7	·	-0.3%
COc1ccc(NC2(c3ccc(Cl)cc3)C(=O)c3ccccc3C2=O)cc1	1.8	11	-1.6%	-2	-1.5	17%	-1.7%
CC(I)CCC(C)[n+]1cccc(I)c1 (configuration not stated)	·	·	-0.7%	·	-0.4	·	-0.6%
O=C(CCN1C(=O)c2cccc([N+](=O)[O-])c2C1=O)Nc1nccs1	-5.6	-17	0.1%	-5	-0.9	-16%	·
COc1cc2c(cc1OC)-c1cc(Nc3ccc(F)cc3)nc(=O)n1CC2	-4.2	-1	0.7%	3	2.6	-8%	?
Cc1cc(C(=O)NCc2ccco2)on1	3.9	5	0.8%	·	-0.1	13%	-2.8%
CCOc1ccc(NC(=O)Nc2ccon2)cc1	1.8	6	2.9%	-7	-0.2	-5%	0.0%
CCOc1ccc(S(=O)(=O)NC2=NCCCCC2)cc1	·	5	3.9%	0	-0.6	·	1.4%
CN1CCN(CCCNC(=O)c2cn(C)c3ccc(S(=O)(=O)N(C)C)cc3c2=O)CC1	2.1	-7	-3.4%	·	3.3	29%	1.2%
CCOc1cc(C=O)cc(Cl)c1OCC(N)=O	2.5	-8	2.9%	12	0.2	-10%	-3.2%
O=C(O)c1cccc(N/N=C/C2=C(Cl)c3cc(Cl)ccc3SC2)c1	?	-7	4.3%	16	6.0	-22%	0.1%
Cc1nnc(N2C(=O)c3cccc4c([N+](=O)[O-])ccc(c34)C2=O)s1	?	-6	4.1%	-1	0.4	-19%	1.8%
O=C(OCC(=O)N1CCCC1=O)c1ccc(F)c(S(=O)(=O)N2CCOCC2)c1	3.3	-10	1.7%	-6	-0.2	9%	-1.4%
CCCCC(CC)CN=C(N)NC(N)=NCCCCCCN=C(N)NC(N)=NCC(CC)CCCC (configuration not stated)	-14	-5	-0.8%	-9	13	14µM*	2.2%
CCN(CC(=O)NCc1ccco1)S(=O)(=O)c1ccc(OC)cc1	·	-5	-0.4%	3	0.3	·	-4.7%
O=C(NC1CCCC1)c1cc(-c2ccc(Cl)cc2Cl)on1	·	6	-0.2%	?	-0.3	18%	·
CCN(C1CCS(=O)(=O)C1)S(=O)(=O)c1ccc(OC)c(OC)c1 (configuration not stated)	·	-2	1.7%	-1	-0.5	·	1.2%
O=C(O)CCc1ccc2ccccc2c1	·	·	-0.2%	·	-0.3	·	-4.9%

Next section.
SMILES	Menin-MLL FL inh	TRPML1 blocker	PINK1 modulator	TRPV1 potentiator	TRPML1 agonist	Sfp PPTase inh	ClpP mod
Cc1ccc(CNC(=O)CN2C(=O)COc3ccc(S(=O)(=O)N4CCCCC4)cc32)o1	-3.3	-13	-0.2%	2	1.2	-5%	-1.2%
CCOC(=O)N1CCN(CCC(=O)Nc2ccc(Br)c(C)c2)CC1	1.1	36	-1.0%	2	-0.4	20%	0.7%
O=C(c1ccc(F)cc1)n1cc(C(=S)N2CCOCC2)c2ccccc21	6.7	-10	1.7%	-6	2.2	-13%	·
COc1ccc(C=C2C(=O)OC(C)(C)OC2=O)cc1OC	-7.3	9	2.4%	1	0.8	-12%	-1.2%
Cc1cc(C(=O)NCCCN(C)C)c2ccccc2n1	-1.4	17	0.8%	2	2.6	-6%	-12%
Cc1ccc(C(=O)Nc2c(C)cc(-c3ccccc3)oc2=O)cc1	-0.1	12	8.6%	6	0.1	-2%	·
O=C(CCC1COc2ccccc2O1)Nc1cccnc1 (configuration not stated)	5.4	2	3.0%[38.3 µM]	-13	-0.6	16%	1.6%
CN(CC(=O)Nc1ccccc1Cl)C(=O)CSC(=S)N1CCCC1	·	-8	-1.5%	-1	1.2	·	-0.8%
CN(C)C(=O)COc1ccc(C(=O)/C=C/c2cccnc2)cc1	-0.4	8	2.4%	11	0.4	6%	·
CCCCC(=O)Nc1ccc(C(=O)NCCN2CCOCC2)cc1	-3.5	-6	-0.8%	4	-0.4	9%	0.8%
CCCN1C(=O)c2ccccc2NC1c1ccc(OC)c(COc2cccc(OC)c2)c1 (configuration not stated)	·	·	0.4%	·	-0.3	·	4.3%
C=C(C)CSc1nc(N)c2c(C)c(C)sc2n1	1.5	27	·	3	0.9	16%	-2.2%
COc1cc2[nH]c(=O)n(CCCCCC(=O)NCCc3ccccc3)c(=O)c2cc1OC	·	31	1.3%	·	-0.7	·	-6.7%
CCCCCNC(=O)CCCCn1c(=O)[nH]c2cc(OCC)c(OCC)cc2c1=O	3.9	10	-0.3%	-2	2.6	9%	?
COc1ccc(Cl)cc1Nc1nc(C)cc(C)c1C(N)=O	2.0	-20	2.6%	6	1.1	5%	3.2%
CC(C)(C)c1ccc(C(=O)N2CCN(S(=O)(=O)c3ccc(Br)s3)CC2)cc1	·	1	0.4%	12	0.4	·	1.7%

This is a random part of the collection. Share with any hit: about 4.4%.
